# A1 apoptosis 2: A1 inhibitors via caspase activation, primary screen, cell-based, luminescence, HTS, two replicates | MEF A1-2A-BIM cells, caspase-Glo luminescence, 3 h; percent of clofoctol response, DMSO zero | caspase activation, % (test concentration not listed) | 24,000 tested, under 10 active; in the data active = caspase activation above about 5.9%;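 also: wells of about 30 µL received 50 nL stock; the first replicate is given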
#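 system = A1-2A-BIM-expressing MEF cells | quantity = 2500 MEF cells/well | dosing = 50 nL compound per well, pinned | schedule = overnight cell settling, then 3 h compound exposure, 37 °C | signal = luminescence from DEVD-luciferin Caspase-Glo reagent, 1:1 in 50 mM HEPES, 1 h RT | read-out = Caspase-3/7 activation, seen as rise in luminescence signal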
# * = called active by the depositor. This is a subset; rates above refer to the full screens.
nr	Structure	A1 apoptosis 2
1	C[C@@H]1CN([C@H](C)CO)C(=O)Cc2cc(NC(=O)Nc3ccccc3)ccc2O[C@H]1CN(C)Cc1ccccc1	1.5
2	Cc1noc(C)c1NC(=O)N(C)C[C@@H]1Oc2c(NC(=O)Nc3ccccc3)cccc2C(=O)N([C@H](C)CO)C[C@H]1C	-0.2
3	C[C@@H]1CN([C@H](C)CO)C(=O)CCCn2cc(nn2)CO[C@@H]1CN(C)C(=O)Nc1ccccc1C(F)(F)F	0.0
4	COc1ccc(CN(C)C[C@@H]2OCCCC[C@@H](C)Oc3ccc(NC(=O)Nc4ccc(OC)cc4)cc3C(=O)N([C@H](C)CO)C[C@@H]2C)cc1	1.1
5	Cc1noc(C)c1S(=O)(=O)N(C)C[C@H]1OCCCC[C@H](C)Oc2ccc(NC(=O)Nc3cccc4ccccc34)cc2C(=O)N([C@H](C)CO)C[C@H]1C	1.2
6	C[C@H](CO)N1C[C@H](C)[C@@H](CN(C)C(=O)Nc2ccc(F)cc2)Oc2ccc(NC(=O)C3CC3)cc2CC1=O	-1.0
7	Cc1noc(C)c1S(=O)(=O)Nc1ccc2c(c1)C(=O)N([C@@H](C)CO)C[C@@H](C)[C@H](CN(C)C(=O)NC(C)C)OCCCC[C@@H](C)O2	-1.5
8	C[C@H](CO)N1C[C@H](C)[C@@H](CN(C)C(=O)NC2CCCCC2)Oc2ccc(NC(=O)c3ccncc3)cc2C1=O	-1.6
9	C[C@@H]1CCCCO[C@H](CN(C)S(=O)(=O)c2ccccc2)[C@@H](C)CN([C@H](C)CO)C(=O)c2cc(NS(=O)(=O)c3ccc(F)cc3)ccc2O1	-1.0
10	Cc1noc(C)c1S(=O)(=O)Nc1ccc2c(c1)C(=O)N([C@H](C)CO)C[C@H](C)[C@H](CN(C)C(=O)c1ccccc1)OCCCC[C@H](C)O2	0.1
11	C[C@@H]1CN([C@@H](C)CO)C(=O)c2cccc(NS(=O)(=O)c3cn(C)cn3)c2O[C@@H]1CN(C)S(=O)(=O)c1ccc(F)cc1	0.4
12	COc1ccc(CN(C)C[C@H]2Oc3c(NC(=O)NC4CCCCC4)cccc3C(=O)N([C@H](C)CO)C[C@H]2C)cc1	-2.1
13	C[C@@H]1CN([C@H](C)CO)C(=O)Cc2cc(NC(=O)Nc3ccc(C(F)(F)F)cc3)ccc2O[C@H]1CN(C)S(=O)(=O)c1ccccc1	-0.2
14	C[C@@H]1CN([C@@H](C)CO)C(=O)c2cc(NC(=O)CCN3CCOCC3)ccc2O[C@@H]1CN(C)C(=O)Nc1ccc2c(c1)OCO2	-1.4
15	CC(C)NC(=O)N(C)C[C@H]1Oc2ccc(NS(=O)(=O)c3cn(C)cn3)cc2C(=O)N([C@@H](C)CO)C[C@H]1C	-1.2

# Quoted at random: 5 compounds from above
nr	Structure	A1 apoptosis 2
15	CC(C)NC(=O)N(C)C[C@H]1Oc2ccc(NS(=O)(=O)c3cn(C)cn3)cc2C(=O)N([C@@H](C)CO)C[C@H]1C	-1.2
4	COc1ccc(CN(C)C[C@@H]2OCCCC[C@@H](C)Oc3ccc(NC(=O)Nc4ccc(OC)cc4)cc3C(=O)N([C@H](C)CO)C[C@@H]2C)cc1	1.1
14	C[C@@H]1CN([C@@H](C)CO)C(=O)c2cc(NC(=O)CCN3CCOCC3)ccc2O[C@@H]1CN(C)C(=O)Nc1ccc2c(c1)OCO2	-1.4
5	Cc1noc(C)c1S(=O)(=O)N(C)C[C@H]1OCCCC[C@H](C)Oc2ccc(NC(=O)Nc3cccc4ccccc34)cc2C(=O)N([C@H](C)CO)C[C@H]1C	1.2
13	C[C@@H]1CN([C@H](C)CO)C(=O)Cc2cc(NC(=O)Nc3ccc(C(F)(F)F)cc3)ccc2O[C@H]1CN(C)S(=O)(=O)c1ccccc1	-0.2

# (cont.)
nr	Structure	A1 apoptosis 2
16	C[C@@H]1CCCCO[C@H](CN(C)Cc2ccccc2)[C@H](C)CN([C@H](C)CO)C(=O)c2cc(NS(C)(=O)=O)ccc2O1	-0.5
17	C[C@@H]1CN([C@@H](C)CO)C(=O)c2cccc(NC(=O)c3cnccn3)c2O[C@H]1CN(C)C	-0.1
18	Cc1noc(C)c1NC(=O)Nc1ccc2c(c1)C(=O)N([C@H](C)CO)C[C@@H](C)[C@H](CN(C)Cc1ccc(C(=O)O)cc1)O2	0.1
19	CC(C)NC(=O)N(C)C[C@H]1OCCCC[C@H](C)Oc2ccc(NC(=O)Nc3cccc4ccccc34)cc2C(=O)N([C@H](C)CO)C[C@@H]1C	-0.6
20	C[C@H]1CN([C@@H](C)CO)C(=O)c2cc(NC(=O)Nc3ccc(C(F)(F)F)cc3)ccc2O[C@@H]1CN(C)CC1CCCCC1	1.5
21	Cc1noc(C)c1S(=O)(=O)Nc1cccc2c1O[C@H](CN(C)Cc1ccc3c(c1)OCO3)[C@H](C)CN([C@H](C)CO)C2=O	-0.7
22	COc1ccccc1CN(C)C[C@H]1OCc2cn(nn2)CCCC(=O)N([C@H](C)CO)C[C@@H]1C	-0.2
23	C[C@@H]1CCCCO[C@@H](CN(C)Cc2ccc(Cl)c(Cl)c2)[C@@H](C)CN([C@@H](C)CO)C(=O)c2cc(NC(=O)Nc3ccc4c(c3)OCO4)ccc2O1	-1.7
24	C[C@@H]1CN([C@@H](C)CO)C(=O)c2cc(NS(=O)(=O)c3cn(C)cn3)ccc2O[C@@H](C)CCCCO[C@H]1CN(C)Cc1ccc(C(=O)O)cc1	1.1
25	COc1ccc(S(=O)(=O)N(C)C[C@@H]2Oc3ccc(NC(=O)Nc4ccc(C(F)(F)F)cc4)cc3CC(=O)N([C@H](C)CO)C[C@H]2C)cc1	1.0
26	COc1ccc(CN(C)C[C@@H]2OCCCC[C@@H](C)Oc3ccc(NS(=O)(=O)c4ccc(C)cc4)cc3C(=O)N([C@@H](C)CO)C[C@H]2C)cc1	0.1
27	COc1ccc(NC(=O)N(C)C[C@H]2Oc3ccc(NC(=O)Nc4cccc5ccccc45)cc3CC(=O)N([C@@H](C)CO)C[C@H]2C)cc1	-1.3
28	COc1ccc(CN(C)C[C@@H]2Oc3ccc(NC(=O)CCN4CCOCC4)cc3C(=O)N([C@@H](C)CO)C[C@@H]2C)cc1	0.3
29	Cc1noc(C)c1NC(=O)Nc1cccc2c1O[C@@H](CN(C)S(C)(=O)=O)[C@H](C)CN([C@@H](C)CO)C2=O	-0.2
30	C[C@@H]1CN([C@@H](C)CO)C(=O)c2cccc(NC(=O)Nc3ccc4c(c3)OCO4)c2O[C@@H]1CN(C)S(C)(=O)=O	0.4

# Following part.
nr	Structure	A1 apoptosis 2
31	C[C@@H]1CCCCO[C@H](CN(C)C(=O)NC2CCCCC2)[C@@H](C)CN([C@H](C)CO)C(=O)c2cc(N(C)C)ccc2O1	0.0
32	Cc1noc(C)c1NC(=O)N(C)C[C@H]1Oc2c(NC(=O)C3CC3)cccc2C(=O)N([C@H](C)CO)C[C@@H]1C	0.1
33	COc1ccc(S(=O)(=O)N(C)C[C@H]2OCCCC[C@@H](C)Oc3ccc(NC(=O)c4ccncc4)cc3C(=O)N([C@@H](C)CO)C[C@H]2C)cc1	-0.5
34	C[C@H](CO)N1C[C@H](C)[C@@H](CN(C)Cc2ccncc2)OCCCC[C@H](C)Oc2ccc(NS(=O)(=O)c3ccc(Cl)cc3)cc2C1=O	-1.1
35	COc1cc2c(cc1OC)CN(C(=O)[C@@H]1[C@H]3C(=O)O[C@H](c4ccccc4)[C@H](c4ccccc4)N3[C@H](c3ccc(O)cc3)[C@@]13C(=O)Nc1ccc(C#CC4(O)CCCCCC4)cc13)CC2	-0.2
36	C[C@H]1CN([C@@H](C)CO)C(=O)c2cc(NC(=O)CCN3CCOCC3)ccc2O[C@@H]1CN(C)Cc1ccc(C(F)(F)F)cc1	-2.1
37	C[C@@H]1CCCCO[C@@H](CN(C)C(=O)NC2CCCCC2)[C@H](C)CN([C@H](C)CO)C(=O)c2cc(NC(=O)Nc3cccc4ccccc34)ccc2O1	1.2
38	C[C@@H]1CN([C@@H](C)CO)C(=O)Cc2cc(NC(=O)Nc3ccc(C(F)(F)F)cc3)ccc2O[C@@H]1CN(C)S(=O)(=O)c1cccs1	0.8
39	CC(C)NC(=O)Nc1ccc2c(c1)C(=O)N([C@@H](C)CO)C[C@H](C)[C@@H](CN(C)C(=O)CCCN(C)C)OCCCC[C@H](C)O2	0.8
40	C[C@H](CO)N1C[C@H](C)[C@H](CN(C)S(C)(=O)=O)Oc2ccc(NC(=O)CCC(F)(F)F)cc2C1=O	1.1
41	C[C@@H]1CCCCO[C@@H](CN(C)Cc2ccccc2)[C@H](C)CN([C@H](C)CO)C(=O)c2cc(NS(=O)(=O)c3cn(C)cn3)ccc2O1	-0.2
42	C[C@H]1CN([C@@H](C)CO)C(=O)c2cc(NC(=O)Nc3ccc(C(F)(F)F)cc3)ccc2O[C@H]1CN(C)Cc1ccc(C(=O)Nc2ccccc2N)cc1	-1.0
43	C[C@H](CO)N1C[C@H](C)[C@H](CN(C)S(=O)(=O)c2ccc(Oc3ccccc3)nc2)OCc2cnnn2CCCC1=O	0.4
44	C[C@H]1CN([C@@H](C)CO)C(=O)c2cccc(NC(=O)c3nc4ccccc4s3)c2O[C@H]1CN(C)S(=O)(=O)c1cn(C)cn1	-0.6
45	COc1cc2c(cc1OC)-c1onc(-c3ccc(OCCO)cc3)c1CCCN(CC(C)O)CC2 (stereo unspecified)	1.3

# Additional entries
nr	Structure	A1 apoptosis 2
46	C[C@@H]1CN([C@H](C)CO)C(=O)c2cccc(NS(C)(=O)=O)c2O[C@H]1CN(C)Cc1ccc(Cl)c(Cl)c1	-2.5
47	Cc1cc(C(=O)Nc2cccc3c2O[C@@H](CN(C)Cc2ccc4c(c2)OCO4)[C@@H](C)CN([C@@H](C)CO)C3=O)n(C)n1	-0.4
48	C[C@H](CO)N1C[C@H](C)[C@H](CN(C)Cc2ccc(C(=O)O)cc2)OCCCC[C@H](C)Oc2ccc(NC(=O)c3ccncc3)cc2C1=O	0.1
49	C[C@H]1CN([C@@H](C)CO)C(=O)c2cc(NS(=O)(=O)c3ccc(F)cc3)ccc2O[C@H]1CN(C)C(=O)Nc1ccc2c(c1)OCO2	-0.3
50	C[C@@H]1CCCCO[C@H](CN(C)C(=O)c2ccccc2)[C@@H](C)CN([C@H](C)CO)C(=O)c2cc(NC(=O)Nc3ccc4c(c3)OCO4)ccc2O1	1.0
51	C[C@H]1CCCCO[C@H](CN(C)Cc2ccc3c(c2)OCO3)[C@@H](C)CN([C@@H](C)CO)C(=O)c2cc(NS(=O)(=O)c3cn(C)cn3)ccc2O1	1.0
52	C[C@H]1CCCCO[C@@H](CN(C)Cc2ccncc2)[C@@H](C)CN([C@@H](C)CO)C(=O)c2cc(NC(=O)Nc3ccc(C(F)(F)F)cc3)ccc2O1	-0.8
53	Cc1noc(C)c1S(=O)(=O)Nc1ccc2c(c1)C(=O)N([C@@H](C)CO)C[C@H](C)[C@H](CN(C)C(=O)Nc1ccc(C(F)(F)F)cc1)OCCCC[C@H](C)O2	1.7
54	C[C@@H]1CN([C@@H](C)CO)C(=O)Cc2cc(NC(=O)C3CC3)ccc2O[C@H]1CN(C)Cc1ccncc1	-0.8
55	C[C@@H]1CN([C@@H](C)CO)C(=O)c2cc(NC(=O)Nc3ccc(F)cc3)ccc2O[C@@H](C)CCCCO[C@@H]1CN(C)Cc1ccc(C(=O)O)cc1	-0.3
56	COc1ccc(S(=O)(=O)N(C)C[C@H]2OCCCC[C@@H](C)Oc3ccc(NC(=O)Cc4ccccc4)cc3C(=O)N([C@@H](C)CO)C[C@H]2C)cc1	0.0
57	C[C@H](CO)N1C[C@H](C)[C@@H](CN(C)S(=O)(=O)c2cccs2)OCCCC[C@H](C)Oc2ccc(NC(=O)Nc3cccc4ccccc34)cc2C1=O	1.8
58	C#CCOc1ccc(/C=N/NC(=O)c2ccccn2)cc1	-10.5
59	C[C@H]1CN([C@@H](C)CO)C(=O)Cc2cc(NC(=O)Cc3cn(C)c4ccccc34)ccc2O[C@@H]1CN(C)Cc1ccc2c(c1)OCO2	1.1
60	C[C@H](CO)N1C[C@H](C)[C@@H](CN(C)CC2CCCCC2)Oc2ccc(NC(=O)Nc3ccc(C(F)(F)F)cc3)cc2C1=O	-0.1

# The list goes on.
nr	Structure	A1 apoptosis 2
61	C[C@@H]1CN([C@H](C)CO)C(=O)c2cc(N(C)C)ccc2O[C@@H]1CN(C)C(=O)Nc1ccc2c(c1)OCO2	0.5
62	COc1ccc(CN(C)C[C@H]2OCCCC[C@H](C)Oc3ccc(NC(=O)c4ccccc4)cc3C(=O)N([C@@H](C)CO)C[C@@H]2C)cc1	2.7
63	COc1ccc(S(=O)(=O)Nc2ccc3c(c2)C(=O)N([C@H](C)CO)C[C@@H](C)[C@H](CN(C)S(=O)(=O)c2ccc(F)cc2)OCCCC[C@@H](C)O3)cc1	0.6
64	CC(C)NC(=O)Nc1cccc2c1O[C@@H](CN(C)C(=O)NC(C)C)[C@@H](C)CN([C@@H](C)CO)C2=O	0.3
65	C[C@@H]1CCCCO[C@@H](CN(C)S(=O)(=O)c2cccs2)[C@H](C)CN([C@@H](C)CO)C(=O)c2cc(NS(=O)(=O)c3cccs3)ccc2O1	0.2
66	C[C@H]1CCCCO[C@@H](CN(C)C(=O)CCCN(C)C)[C@@H](C)CN([C@@H](C)CO)C(=O)c2cc(NC(=O)Nc3ccccc3)ccc2O1	-1.0
67	C[C@@H]1CCCCO[C@H](CN(C)S(=O)(=O)c2ccc(F)cc2)[C@@H](C)CN([C@H](C)CO)C(=O)c2cc(NS(=O)(=O)c3cccs3)ccc2O1	1.2

# Compound activity (PubChem)
